# Assay outcomes as filed in PubChem BioAssay.
# gsp ag: activates gsp, the McCune-Albright syndrome mutation; AID 624287; Potency, µM (doses to about 76.9 µM), without a hit: top-dose activation (cAMP increase), actives largely listed as activators; 0.13% of 340,000 active; gsp mutant cells, cAMP HTRF, 30 min; control for the full effect not named in the record; active = well fitted activation curve with a large enough effect; inconclusive = small, poorly fitted or top-dose-only effect, or another doubt; inactive = no such curve, though single readings can be large or run the other way; cell line not stated here;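 note: phosphodiesterase inhibitor Ro 20-1724 added with compounds to block cAMP breakdown; potency is the fitted concentration of half-maximal effect; nearly all actives have a fitted effect of over 60% in size; about a fifth of the inactives were tested at one dose only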
#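 Cells stably selected in G418 were plated at 2000/well, grown 16-24 hr, then given compounds in DMSO with the PDE inhibitor […] (300 uM solution added) for 30 min at 37C; cAMP was read by HTRF.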
# Sfp inh: inhibitors of Bacillus subtilis Sfp phosphopantetheinyl transferase. Q9F4F7. Biochemical Sfp PPTase activity, qHTS. Potency, µM, for inactives: max response, negative = inhibition, most hits filed as inhibitors. 3.5% of 310,000 active; active = well fitted inhibition curve with a large enough effect; inconclusive = small, poorly fitted or top-dose-only effect, or another doubt; inactive = no such curve, though single readings can be large or run the other way;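 note: the enzyme is Sfp with the accession as filed and its product quenches rhodamine fluorescence; potency is the fitted concentration of half-maximal effect; 0% = enzyme reaction without inhibitor and -100% = no enzyme wells; top concentration of the series not given in the record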
#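 Step 1, compound plus 15 nM Sfp-PPTase, 15 min, room temperature. Step 2, add rhodamine-CoA (5 uM) and BHQ-2-YbbR (12.5 uM). Step 3, read 525/598 nm fluorescence at 0 and 30 min.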
# ClpP mod: qHTS Assay for Activators of ClpP; ATP-dependent Clp protease proteolytic subunit (Bacillus subtilis (strain 168)), P80244; purified B. subtilis ClpP, FRET peptide cleavage, 20 min; Potency, µM (top dose mostly 57.5 µM), for inactives: at the top dose activity change, negative = active; 1.9% of 340,000 active; AID 651965, 2013; active = well fitted falling curve with a large enough effect; inconclusive = small, poorly fitted or top-dose-only effect; inactive = no such curve, though single readings can be large or run the other way; note: potency is the fitted concentration of half-maximal effect; the source files actives as falling curves though it sought activators and does not explain the sign; nearly all actives have a fitted effect of over 65% in size; many hits overshoot -100%
# Target sequence (P80244 whole entry, looked up): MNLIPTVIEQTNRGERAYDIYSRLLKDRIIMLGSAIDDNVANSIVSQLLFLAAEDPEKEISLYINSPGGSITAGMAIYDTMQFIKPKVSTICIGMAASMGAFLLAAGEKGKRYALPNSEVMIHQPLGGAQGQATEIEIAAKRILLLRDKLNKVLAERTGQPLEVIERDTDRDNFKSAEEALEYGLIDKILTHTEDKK
#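 FRET quenching reversal measured ClpP activation: 10 microg/mL B. subtilis ClpP at pH 8 with the FRET-FV decapeptide, read at 430 nm after 320 nm excitation. The 20-min minus 0-min signal was scaled between DMSO/no-enzyme wells and ADEP (5.8 microM final).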
# gsp antagonist: antagonists of gsp mutant (McCune-Albright syndrome); gsp-mutant cells, cAMP HTRF, 30 min; control for the full effect not named in the record; AID 624288; 0.4% of 340,000 active; Potency, µM (titrated, usually from 76.9 µM), for the others: at the highest dose activity change, negative = inhibition, actives largely listed as inhibitors; active = falling curve of any shape with a large fitted effect; inconclusive = falling curve, mostly with a smaller effect; inactive = flat or rising curve; cell line not stated here;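 note: intracellular cAMP measured with PDE inhibitor Ro 20-1724 present during compound exposure; potency is the fitted concentration of half-maximal effect; % is set by controls: 0 for no effect and ±100 for the full control effect; nearly all actives have a fitted effect of over 65% in size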
#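 Cells, 2000/well, grown 16–24 h in DMEM 10% FBS with 0.5 mg/ml G418, then compounds plus […] (300 uM addition stock), 30 min at 37C. cAMP read by HTRF (cAMP-d2 and anti-cAMP antibody-K in lysis buffer) after 30 min RT.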
# D2 agonist: agonists of human D2 dopamine receptor (beta-arrestin). activation, % (concentration not given with the values). 0.084% of 360,000 active. P14416. DiscoveRx PathHunter D2 beta-arrestin, luminescence, 90 min; 100% = 57 uM dopamine signal; in the data active = activation above about 40%; inconclusive = about 15% to 40%; inactive = below about 15%; note: compound concentration not given in the record; the text of the record calls up to 30% inactive
# Target sequence (P14416 whole entry, looked up): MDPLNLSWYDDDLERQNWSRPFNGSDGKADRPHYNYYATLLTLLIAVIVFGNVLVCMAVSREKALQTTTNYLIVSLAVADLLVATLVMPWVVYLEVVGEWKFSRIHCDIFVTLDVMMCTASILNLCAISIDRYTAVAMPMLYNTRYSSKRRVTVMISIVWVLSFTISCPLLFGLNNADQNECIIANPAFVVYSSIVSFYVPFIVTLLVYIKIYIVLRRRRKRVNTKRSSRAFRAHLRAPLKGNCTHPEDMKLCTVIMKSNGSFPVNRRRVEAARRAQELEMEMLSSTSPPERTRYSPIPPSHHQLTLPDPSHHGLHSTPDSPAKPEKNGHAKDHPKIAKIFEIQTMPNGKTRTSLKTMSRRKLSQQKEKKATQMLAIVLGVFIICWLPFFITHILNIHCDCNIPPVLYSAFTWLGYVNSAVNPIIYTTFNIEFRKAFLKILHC
#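 DiscoveRx PathHunter D2 beta-arrestin cells (2,100/well) attached overnight, then compound-stimulated 90 min at 37 C in HBSS/10 mM HEPES/0.1% Tween-20 buffer; beta-galactosidase complementation read by luminescence after 1 h at ambient temperature. Dopamine 57 uM final (EC100) as control.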
# Menin MLL FP FL: menin-MLL binding inhibition, fluorescein peptide. Fluorescence polarization, fluorescein-MLL peptide displacement from menin. FP activity change, % at 61.4 µM. 290,000 tested, under 10 active; inconclusive = falling polarisation curve, or a change in total fluorescence; inactive = total fluorescence flat and polarisation flat or rising; no compound was filed as active; the % refers to the polarisation; negative = inhibition;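 note: % of control where 0% means no effect; inhibitors lower the polarisation; unlabelled MLL peptide was the positive control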
# PINK1 expr mod: modulators of PINK1 expression. PINK1 immunofluorescence, high-content cytometry, 24 h. 0.2% of 410,000 active. Potency, µM (doses to about 76.6 µM), without a hit: at the top dose activation (PINK1 increase), actives largely listed as activators; active = well fitted activation curve with a large enough effect; inconclusive = small, poorly fitted or top-dose-only effect; inactive = flat fitted curve, though single readings scatter; cell line not stated here;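 note: potency is the fitted concentration of half-maximal effect; % of control where 0% means no effect; nearly all actives have a fitted effect of over 65% in size; a mitochondrial uncoupler was the plate control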
#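 Decision-based qHTS: stable cells, 24 h exposure to five compound concentrations, CCCP as control. Fixed cells stained for PINK1 plus nuclear, mitochondrial and cell markers, cytometer read.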
# Active calls of the source: *; ? = inconclusive; nt = not tested or not shown; [ ] = dose if it differs, or a comment.
SMILES,gsp ag,Sfp inh,ClpP mod,gsp antagonist,D2 agonist,Menin MLL FP FL,PINK1 expr mod
CCC(C)c1ccc(NC(=O)c2c([N+](=O)[O-])cnn2CC)cc1 (stereo unspecified),-2%[15.4 µM],9%,1.3%,8%,-3.5,-3.2,8.6%
Cc1cc(C)c(C(=O)Nc2ccc(S(=O)(=O)Nc3onc(C)c3C)cc2)c(C)c1,21%,23%,0.8%,-3%,-1.5,0.8,3.0%
CCc1cc(=O)oc2cc(OCC(=O)NCc3ccccn3)ccc12,-2%,8%,3.4%,6%,-6.9,nt,2.8%
Cc1cc(C(=O)OCC(=O)NCc2ccccc2)c2ccccc2n1,-1%[15.4 µM],nt,0.4%,-9%,6.9,nt,2.0%
O=C(CCCCCNC(=O)N1CCn2c1nc1ccccc12)NCc1ccc(Cl)cc1,27%,3%,0.8%,-10%,3.2,-0.1,-0.3%
NC(=O)c1c(NC(=O)c2ccc(F)cc2Cl)sc2c1CCC2,-13%,-8%,21%,-17%,0.3,0.0,4.1%
Cc1ccccc1Nc1cc(=O)oc2ccccc12,-1%,7%,0.7%,-3%,-0.9,-0.1,0.2%
Cc1cccc(N2CCN(CC(O)COCc3cccs3)CC2)c1C (stereo unspecified),-2%,18%,22µM*,-1%,4.0,4.4,15%
COc1ccc(CN2C(=O)c3cccnc3C2=O)cc1S(=O)(=O)N1CCCC(C)C1 (stereo unspecified),7.9µM*,14%,-1.9%,14%,-2.8,-0.9,1.9%
CCN(CC)CCCN=C(C)C1=C(O)c2ccccc2C1=O,8%[15.4 µM],14%,-0.5%,-2%,-2.4,3.3,1.5%
Cc1[nH]c2ccccc2c1C(C[N+](=O)[O-])c1cccc(O)c1 (stereo unspecified),23%,6%,nt,0%,2.1,-4.0,11%
COc1ccc(C(O)P(=O)(OCc2ccccc2)c2ccc(N(C)C)cc2)cc1 (stereo unspecified),2%,9%,-8.3%,-1%,-0.3,4.6,-0.4%
CC(C)(C)NC(=O)C[C@H]1C[C@H](C(=O)N2CCOCC2)[C@@]2(C)c3[nH]c4ccc(Cl)cc4c3CCN2C1=O,nt,nt,0.0%,3%,-3.2,nt,1.4%
Cc1ccccc1CN1[C@@H](Cc2ccccc2)COCCS1(=O)=O,nt,nt,-2.4%,-1%,-0.8,nt,-0.5%
O=C(CCn1c(=S)[nH]c2ccccc2c1=O)N1CCCCC1,28%,-6%,-1.3%,3%,-8.5,nt,1.5%
Cc1ccc(-c2nnc(N(C)C(=O)c3cccnc3)s2)cc1,-24%,11%,20%,-20%,3.3,2.1,-1.8%
O=c1c2[nH]c3ccc(F)cc3c2nc2n1CCCS2,7%,3%,nt,-5%,5.8,-0.2,1.2%
O=C(NCc1ccc2c(c1)OCO2)C1CCN(Cc2cnn(-c3ccccc3)c2-n2cccc2)CC1,-3%,12%,0.2%,13%,-2.2,?,-1.5%
COc1ccc(/C=C2\Oc3cc(OC(=O)N4CCOCC4)ccc3C2=O)cc1,?,-1%,-2.8%,-7%,-2.5,7.4,13%
O=C(O)/C=C/c1cn(-c2ccccc2)nc1-c1ccccc1,?,8%,-4.8%,?,-2.1,-1.0,2.3%
O=C(CSc1nnnn1C1CCCC1)N1CCN(C(=O)c2ccco2)CC1,-4%,24%,-1.5%,2%,1.2,1.7,4.5%[38.3 µM]
COCCSc1nnc(NC(=O)c2ccco2)s1,-12%[15.4 µM],2%,-7.6%,-7%,-1.8,2.6,1.0%
C/C(=N\NC(=O)c1cc(-c2cccc([N+](=O)[O-])c2)n[nH]1)c1ccccc1O,13%,-5%,-11%,-6%,0.0,4.7,-0.7%
C=CCn1c(=O)/c(=C/c2cc(OC)c(OC)c(OC)c2)s/c1=C(/C#N)c1nc2ccccc2n1C,6%,0%,0.2%,14%,-0.3,?,2.3%
COc1cc(/C=N\NC(=O)c2ccc(C)nc2)ccc1OC(=O)c1ccc2c(c1)OCO2,9%,-2%,3.3%,-7%,-5.8,9.8,-1.1%
CN1CCN(C(=O)C23CC4CC(C)(CC(C)(C4)C2)C3)CC1,-18%,14%,0.7%,5%,-5.2,0.3,-1.0%
O=C(/C=C/c1cccc(Cl)c1)c1ccc([N+](=O)[O-])o1,nt,nt,-0.2%,-14%,3.3,nt,-1.3%
CCC(C)c1ccccc1N1CC(C(=O)Nc2cc(S(=O)(=O)N3CCOCC3)ccc2OC)CC1=O (stereo unspecified),?,nt,2.3%,20%,-6.0,nt,0.6%
CC(C)OCCCNC(=O)Cc1ccc(F)cc1,0%,-1%,0.3%,-13%,-1.3,-3.7,0.0%
CC(=O)Nc1c(O)nc(C)[nH]c1=O,-29%,-2%,0.3%,8%,-2.0,-2.5,-0.3%
COc1ccc(-n2c(SCC#N)nnc2-c2ccc(NS(=O)(=O)c3ccc(C)cc3)cc2)cc1,-48%[inhibitor],3%,-2.8%,-3%,0.4,3.3,-5.6%
O=S(=O)(c1ccc(Cl)cc1)N1CCNCC1,0%,11%,-1.1%,-3%,7.3,0.8,-1.2%
O=C(CC(c1ccccc1)c1ccccc1)Nc1ccncc1,3%[15.4 µM],6%,nt,-1%,3.7,-5.4,2.9%
COc1ccccc1C(=O)COC(=O)C(CCSC)NC(=O)COc1ccccc1 (stereo unspecified),-14%,nt,2.5%,-7%,0.1,nt,-1.7%
CCCCCCC(=O)Nc1nc(C)c(-c2csc(Nc3cc(OC)ccc3OC)n2)s1,-3%,11%,-8.0%,-2%,-0.7,2.5,1.6%
COc1ccc(-c2nnc3n(CCc4ccccc4)c(=O)c4ccccc4n23)cc1OC,-9%,-12%,-1.1%,?,3.2,7.4,1.6%
Cc1cccc(NC(=O)c2ccco2)c1C(=O)O,17%,7%,nt,1%,-0.1,3.9,-1.1%
COC(=O)c1ccsc1NC(=O)CSc1nnnn1-c1ccccc1SC,-36%[inhibitor],13%,-1.7%,-16%,0.8,3.3,4.9%[38.3 µM]
CC(=O)Nc1ccc(S(=O)(=O)NNC(=O)c2cccc([N+](=O)[O-])c2)cc1,1%,-11%,-3.6%,10%,-8.2,-2.1,-0.3%
CC(C)(C)C(=O)NC(=S)NNC(=O)c1ccc(-c2ccccc2)cc1,0%,27%,27%,5%,-14,3.6,-0.9%
Cc1ccccc1-c1nc(NCc2cccnc2)c2ccccc2n1,nt,-4%,nt,nt,nt,4.0,0.5%
Cc1ccc(NC(=O)CN2C(=O)CSC2=O)cc1,-9%,19%,-1.2%,0%,-2.6,0.8,3.1%
NC(=O)c1sc2nc(-c3cccnc3)ccc2c1N,?,?,nt,3%,1.5,0.8,-2.7%
CC(C)CCNC(=O)CN(C(=O)Cn1nnc(-c2ccccc2F)n1)c1cccc2c1CCCC2,-56%[inhibitor],9%,0.3%,8%,-2.2,4.5,nt
Cc1ccc(/C=C2\S/C(=N/S(=O)(=O)c3cccs3)NC2=O)cc1,?,?,0.0%,0%,-2.6,0.0,2.1%
COCCCNC(=S)N1CCN(c2ccccc2)CC1,7%[15.4 µM],12%,nt,-3%,9.0,-3.2,-1.0%
COCCNC(=O)C(c1ccc(F)cc1)N(Cc1ccccc1)C(=O)CCC(=O)Nc1nccs1 (stereo unspecified),-16%[15.4 µM],3%,nt,-1%,3.1,0.4,1.2%
COc1ccc2oc(=O)c(C(=O)N3CCN(c4ccccc4)CC3)cc2c1,-32%[inhibitor],20%,-3.0%,0%,-0.2,5.3,nt
O=C1c2ccccc2S(=O)(=O)N1CC1CC(c2ccccc2)=NO1 (stereo unspecified),4%,12%,1.3%,0%,-0.7,-0.8,-0.5%
CC1CCCN(CCCNC(=O)c2ccc(NC(=O)C3=CSCCO3)cc2)C1 (stereo unspecified),-52%[inhibitor],10%,-4.3%,9%,-1.1,nt,2.1%

# (list continues)
SMILES,gsp ag,Sfp inh,ClpP mod,gsp antagonist,D2 agonist,Menin MLL FP FL,PINK1 expr mod
O=C(O)c1cccc(COCC(F)(F)C(F)F)c1,-23%,18%,1.2%,-5%,-3.0,4.6,3.8%[38.3 µM]
COCC1CCCCN1Cc1cn[nH]c1-c1ccc2cc(OC)ccc2c1 (stereo unspecified),-4%,14%,-5.9%,-5%,11,-0.4,1.9%
CCOC(=O)[C@H]1[C@H]2COc3ccc(Br)cc3[C@@H]2N2C(=O)CN(Cc3ccc(F)cc3)C(=O)[C@@]12C,-1%,nt,-0.6%,-18%,0.5,nt,2.7%
CC1(C)Cc2nc3sc(C(=O)NCCCO)c(N)c3cc2CO1,9%,79µM*,-6.4%,5%,-10,-13,-1.4%
Cc1cccc[n+]1C1C(c2ccc([N+](=O)[O-])cc2)C(C#N)=C(C(=C=[N-])C#N)NC1(O)C1CC1 (stereo unspecified),6%,17%,1.4%,-8%,3.1,-9.8,1.7%
O=C(NC(=S)N(Cc1ccccc1)c1ccccn1)C1CCCCC1,-27%,-2%,-7.6%,12%,-5.0,-2.2,-0.1%
COc1cc(CN2CCc3c([nH]c4ccccc34)C2)cc(OC)c1,-6%[15.4 µM],2%,0.6%,0%,-1.8,1.6,12%
N#CCCn1c(SCC(=O)N2CCN(S(=O)(=O)c3ccccc3)CC2)nc2ccccc21,-27%,-8%,-4.1%,-10%,-2.0,2.8,0.5%
CCCCn1c(=O)[nH]c(=O)c2c1nc(-c1ccc(OCCC)c(OCC)c1)n2C,?,13%,-12%,5%,3.1,0.0,0.1%
Cc1cc2ccccc2n1CCNC(=O)Cc1cccc2ccccc12,-10%,1%,-3.2%,-11%,-1.1,?,0.1%
COC(=O)c1sccc1NC(=O)c1ccc(C(C)C)cc1,-15%[15.4 µM],-10%,-2.1%,-5%,-4.1,2.8,8.6%
Cc1oc(-c2cccs2)nc1CN1CCN(CCC(C)C)C(CCO)C1 (stereo unspecified),1%[15.4 µM],-7%,nt,8%,-1.3,5.5,-1.1%

# No enrichment for hits; any-hit rate near 5.1%.
